# High-throughput results: PubChem BioAssay, Fisher Drug Discovery Resource Center
# NPYLR7 agonist = activates Aedes aegypti NPYLR7 receptor; HEK293T NPYLR7/Galpha15, GCaMP6s calcium fluorescence; activation, % at 10 µM; actives 0.15% (n = 270,000); AID 1259423; in the data active = activation above about 40%;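 note: 0% = vehicle and 100% = reference agonist at the receptor; some compounds past the cut are filed as inactive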
# NPYLR7 agonist max-min = also measured in NPYLR7 agonist; calls as there; activation, %; measured here: Max-Min RFU normalised activation; some inactives read as strong as hits;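 span of the calcium signal over five minutes; 0% = vehicle and 100% = native peptide agonist; compound fluorescence can raise it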
# Starred values were filed as active, the others as inactive; & = joins results of further samples.
SMILES | NPYLR7 agonist | NPYLR7 agonist max-min
CCOC(=O)c1nn(Cc2ccncc2)c2c1CN(C(=O)CCc1ccc3c(c1)OCO3)CC2 | 21 | 10
Cc1cccc(C)c1N1CC(c2nc3ccccc3n2CC(=O)N2CCCCCC2)CC1=O (centres undefined) | 3 | -1
CSc1ncc(CNCc2ccc(C)o2)c(N2CCC(N3CCCCC3)CC2)n1 | 3 | 16
COc1cn(CC(=O)Nc2ccc(C)cc2C)c(CN2CCN(c3ccccc3)CC2)cc1=O | -4 | -4
CC(=O)N1CCC(C(=O)N(C)CC2CCCCC2)CC1 | -3 | -5
CCc1nc(C)ccc1OCC(=O)NC1C=CS(=O)(=O)C1 (centres undefined) | 3 | 3
Cc1cc(O)c(C(c2ccccc2)N2CCN(c3ccc(F)cc3)CC2)c(=O)n1Cc1cccnc1 (centres undefined) | 7 | 3
O=C(c1ccc(=O)[nH]n1)N1CCN(Cc2ccc(-c3ccc(Br)cc3)s2)CC1 | 4 | 2
CC1(C(=O)NS(=O)(=O)c2ccc(Br)cc2)CCN1C(=O)CC1CCCC1 (centres undefined) | 9 | 4
O=C(c1csc(CSc2nnc(-c3cccnc3)n2-c2ccccc2F)n1)N1CCN(C(c2ccccc2)c2ccccc2)CC1 | -6 | 1
Cn1c(=O)n(C)c2cc(Cl)ccc21 | -1 | 1
COC(=O)c1ccc(C(=O)Nc2cccc3c2C(=O)N(C)C3=O)cc1 | -5 | -9
CN(Cc1nc(-c2ccncc2)no1)C(=O)c1cccc2ccnn12 | 6 | 4
Cc1cc(C)nc(Nc2ccc([N+](=O)[O-])cc2O)n1 | 1 | 1
NC(=O)c1nc(-c2cc(Br)ccc2O)nc2c1[nH]c(=O)n2-c1ccc(F)cc1 | 1 | -1
Cc1cccc2c(CCC(=O)n3ncc(C#N)c3N)c[nH]c12 | 4 | 3
FC(F)(F)c1nnc2ccc(-n3ccnc3)nn12 | 1 | -1
Cc1cncc(NCc2ccc3c(c2)OCO3)n1 | 0 | -3
O=C(NCCOc1ccc2nnc(-c3ccc(F)cc3)n2n1)c1cc(-c2ccco2)[nH]n1 | 3 | 19
CC(C)CCN1CCN(Cc2nc3ccccc3s2)CC1CCO (centres undefined) | 14 | 0
CN(Cc1cccc(Cl)c1)Cc1nc2scc(-c3ccc(F)cc3)c2c(=O)[nH]1 | 9 | 10
CS(=O)(=O)N1CCc2cc(S(=O)(=O)Nc3ccc4c(c3)OCO4)ccc21 | -3 | -1
COCCCNC(=O)c1cc(NC(=O)c2cc(C(F)(F)F)cc(C(F)(F)F)c2)ccc1N1CCCC1 | 4 | 11
COc1ccc(OCc2nc(C(=O)Nc3ccccc3)cs2)cc1 | -5 | -2
O=S(=O)(CCC1CCCO1)NC(c1cc(F)ccc1F)C1CC1 (centres undefined) | 4 | -11
COc1cccc(CN(C)C(C)c2nc(C)sc2C)c1F (centres undefined) | 1 | 13
Cc1ccc(CNS(=O)(=O)NCc2ccccc2)c(F)c1F | 7 | 7
CCCn1ccnc1-c1nccn1-c1ccc(OC)nc1OC | -12 | -11
CC1CCCCC12NC(=O)N(CN(C)Cc1ccccc1Cl)C2=O (centres undefined) | 14 | 12
Cc1nc(C)c2c(n1)OC(CN1CCc3onc(-c4cccc(F)c4)c3C1)C2 (centres undefined) | 33 | 10

# Record cards, from the list above. Values in the order: NPYLR7 agonist | NPYLR7 agonist max-min
# `FC(F)(F)c1nnc2ccc(-n3ccnc3)nn12` across the screens: 1 | -1
# `COCCCNC(=O)c1cc(NC(=O)c2cc(C(F)(F)F)cc(C(F)(F)F)c2)ccc1N1CCCC1` across the screens: 4 | 11
# `CC(C)CCN1CCN(Cc2nc3ccccc3s2)CC1CCO` (centres undefined) across the screens: 14 | 0
# `CC1CCCCC12NC(=O)N(CN(C)Cc1ccccc1Cl)C2=O` (centres undefined) across the screens: 14 | 12
# `Cc1cccc2c(CCC(=O)n3ncc(C#N)c3N)c[nH]c12` across the screens: 4 | 3

# Following part:
SMILES | NPYLR7 agonist | NPYLR7 agonist max-min
CCOC(=O)c1nn(-c2ccccc2Cl)c(=O)cc1OCC(=O)Nc1c(C)cc(C)cc1C | 9 | 5
Cc1ccc(F)cc1CC(=O)N1CCC(N2CCC(O)CC2)CC1 | 2 | -1
N#Cc1nc(-c2ccc(S(=O)(=O)N3CCCCC3)cc2)oc1N1CCc2ccccc2C1 | 3 | 32
Cc1ccc(C)c(-n2nc(C)c(/C=N\N3CCOCC3)c2Cl)c1 | 1 | -1
CNS(=O)(=O)CCNC(=O)C1CC(=O)N(Cc2ccc(C)cc2)C1 (centres undefined) | -4 | -4
CCOC(=O)c1sc(NC(=O)CC)nc1C | -2 | -4
Cc1nn(-c2ccccc2Cl)c(C)c1CCC(=O)NC1CC(C)(C)N(C)C(C)(C)C1 | 10 | 5
COc1ccc(-c2cnc3ncnn3c2N2CCCN(C(=O)c3cc(F)c(F)cc3F)CC2)cc1OC | 1 | -1
COc1cccc(C2=NN(C(=O)CN3CCN(c4ccccc4F)CC3)C(c3ccccc3Cl)C2)c1 (centres undefined) | 8 | 10
CCC(C)N(CC(=O)N(CCOC)Cc1cccn1Cc1ccccc1)C(=O)CCc1ccccc1 (centres undefined) | 2 | 12
O=C1OC(c2ccc(Br)cc2)=N/C1=C\c1coc2c(Cl)cc(Cl)cc2c1=O | 8 | 8
CC1(C)OCC(CN2C(=O)c3ccccc3NC2/C=C/c2ccco2)O1 (centres undefined) | -1 | -4
CCOC(=O)C(Cc1ccccc1)SC#N (centres undefined) | -8 | -14
O=C1CCCN1c1ccccc1NCc1cc2ccccc2nc1Cl | -4 | -4
CCOC(=O)Cc1c(C)n2nc(C)cc2[nH]c1=O | -2 | -2
O=C(NCc1ccncc1)C(C1CCCC1)N1CCN(C(=O)c2ccc(Cl)c(Cl)c2)CC1 (centres undefined) | -3 | 2
CCN1CCN(C(=O)c2ccc(CSc3nnc(-c4cccc(OC)c4)n3CC)cc2)CC1 | 9 | 21
COc1cc(Cl)c(C)cc1NC(=O)Nc1ccc(F)cc1 | 0 | -2
O=C(C=Cc1cccs1)c1cccs1 | -1 | -3
CC(C)c1ccc(C2c3c(n[nH]c3-c3ccc4c(c3)OCO4)OC(=N)C2C#N)cc1 (centres undefined) | 0 | 1
Fc1ccccc1-c1ncc2ccccn12 | -1 | -1
O=C(c1ccc(Cl)cc1)c1ccc(OC(=O)N2CCCCC2)cc1 | 0 | 7
O=C(NNC(=O)c1cccn(Cc2cccc(F)c2)c1=O)NC1CCCCC1 | 3 | -1
O=C(c1cc(S(=O)(=O)N2CCOCC2)ccc1N1CCCC1)N1CCc2ccccc2C1 | -1 | -2
Cc1ccccc1-n1ncc2c(C(C)C)nn(CC(=O)N(C(C)C)C(C)C)c(=O)c21 | 9 | 7
CO[C@H]1CN(Cc2ccc(F)cc2)[C@H]2Cc3c(oc4ccccc34)[C@@H]1C2 | 22 | 33
CN(CCc1ccccn1)c1ncccc1CNC(=O)c1ccc2cc[nH]c2c1 | 2 | 2
CCOC(=O)c1c(NC(=O)C(OC(C)=O)c2ccccc2)c(-c2ccc(OC)c(OC)c2)cn1Cc1ccccc1 (centres undefined) | 12 | 2
COc1ccccc1-c1cc(C(=O)NCCN2CCCCC2)nc2cc(C(C)(C)C)nn12 | 19 | 14
COc1ccc(C2CC(c3ccc(F)cc3)=Nc3ncnn32)cc1 (centres undefined) | 8 | 1
COc1ccc(-n2nnc(C(=O)OCc3ccccc3F)c2C)cc1Cl | 5 | -2
Fc1ccc(-c2cnc(CN3CCCc4cccc(F)c43)o2)cc1 | 1 | 0
CCCCCc1ccc(C(=O)N(CC(=O)c2c(C)c(C(=O)OC)n(CC)c2C)CC2CCCO2)cc1 (centres undefined) | -2 | 11
CCCOc1ccc(C(=O)NC(=S)Nc2cc([N+](=O)[O-])ccc2F)cc1 | 3 | 9
Cc1ccc(C)c(SCC(=O)N2CCCC(S(N)(=O)=O)C2)c1 (centres undefined) | 3 | 1
Cc1ccc(OCc2ccc(-c3nc(C#N)c(N4CCCC4)o3)o2)cc1 | 1 | 17
COc1cccc(NC(=O)CCC2CCN(C(=O)c3csnn3)CC2)c1 | 18&12 | 9&4
Nc1ccnc(N2C[C@H]3C[C@H](C2)[C@@H]2CCCC(=O)N2C3)n1 | 5 | 2
Cc1nn(C)c(C)c1NC(=O)C(C)Sc1nc2ccccc2c(=O)n1CC1CCCO1 (centres undefined) | -6 | -7
COc1cc(C2C3C(=O)CC(C)(C)CC3=Nc3c(C(N)=O)cnn32)ccc1O (centres undefined) | -1 | -2
COCCn1c(CO)nc2ccccc21 | -1 | 1
O=C(NCC1CCN(c2nc(Cc3ccc(Cl)cc3)ns2)CC1)C1CC1 | -7 | -5
CC(=O)N(c1nc(COC(=O)C2CCC2)cs1)c1c(C)cc(C)cc1C | -4 | -5
Cn1c(=O)n(CC=Cc2ccccc2)c(=O)c2c1nc1n2CCCN1C1CCCCC1 | 2 | 29
COc1ccc2c3oc(=O)cc(O)c3c(=O)n(C)c2c1 | 4 | 0
CCn1cc(C(CC(=O)N2CCN(C(c3ccccc3)c3ccccc3)CC2)c2ccc(F)cc2)c2ccccc21 (centres undefined) | 5 | 17
O=C(CSc1nnc(NC(=O)C(Cl)c2ccccc2)s1)c1ccc(F)cc1 (centres undefined) | 2 | 12
Cc1cccc2c1C(=O)NC1(CCN(C(=O)C3C[C@H]3c3ccccc3)CC1)N2 (some centres undefined) | 2 | 8
Cc1nnc(SCC(=O)Nc2cccc(Cl)c2)c2c1cnn2-c1ccc(F)cc1 | -5 | -14
C=c1ccccc1=C1NN=C(NC(=O)c2ccc(OCC)cc2)S1 | -12 | -18
COc1cccc(CN2CCC(C(=O)NC(c3ccc(C)cc3)c3ccccn3)CC2)c1 (centres undefined) | -7 | 2
CCCC(C)c1nnc(NC(=O)NCCn2c(C)cc(C)nc2=O)s1 (centres undefined) | 3 | -2
COc1ccc2c(c1)C1(CC(=O)N(CC(=O)N(C)C)C1=O)C(=O)N2CCCn1c(=O)n(C)c2ccccc21 (centres undefined) | -22 | -24
Cc1cc(C(=O)N(Cc2cccnc2)c2nc3c(F)cc(F)cc3s2)no1 | 0 | 0
CNc1nc2c(C)cccn2c(=O)c1C=Nc1ccccc1 | -4 | -7
COc1cc(/C=C2/SC(=S)N(CC(=O)O)C2=O)cc(Br)c1O | -1 | -6
O=C(OC1CCCC1)c1c(F)cccc1Cl | -6 | -8
CCCCN(CC)C(=O)c1ccc2c(c1)NC(=O)C(C)S2 (centres undefined) | 1 | -3
C=CCn1c(SCC(=O)Nc2nccs2)nc2c([nH]c3ccccc32)c1=O | -2 | -2
Cc1nn(-c2ccc(N3CCN(S(=O)(=O)c4ccc(C(C)(C)C)cc4)CC3)nn2)c(C)c1C | 0 | -5

# New compounds follow.
SMILES | NPYLR7 agonist | NPYLR7 agonist max-min
O=C(NCCNc1cc(-n2cccn2)ncn1)Nc1ccccc1Cl | -7 | -13
C=CCN(Cc1ccc([N+](=O)[O-])cc1)Cc1cccn1Cc1ccc(F)cc1 | 32 | 35
O=C(CCCCCCCC(=O)NC1CCCCC1)NC1CCCCC1 | -3 | -4
COC(=O)C1C(=O)CSC1=Nc1cccc(F)c1 (centres undefined) | -5 | 2
COc1cccc(N2C(=O)CC(NCc3ccc(S(N)(=O)=O)cc3)C2=O)c1 (centres undefined) | -11 | -15
Cc1ccn2c(NCc3ccccc3)c(-c3cccc(F)c3)nc2c1 | 23 | 26
CCC(CC)C(=O)N(Cc1cc(NC(=O)c2ccccc2Cl)ccc1N(C)C)CC1CCCO1 (centres undefined) | 1 | 13
CO[C@H]1[C@H](NC(=O)c2ccncc2)c2ccccc2C12CCN(C(=O)c1csc(C(C)=O)c1)CC2 | 0 | -1
Cc1c(C(=O)NCCN(C)C)sc2nc(-c3cccc([N+](=O)[O-])c3)cn12 | 3 | -1
COCCNC(=O)c1cc(N(C)CCc2ccc(OC)c(OC)c2)nc2ccccc12 | 3 | -1
Cc1nc(SCc2cccc(C(=O)NCC3CCCO3)c2)nc(N(C)Cc2ccccc2)c1C (centres undefined) | 6 | 15
C=CCOc1c(OC)ccc2c1CN(Cc1ccco1)C(=O)CCN2CC(O)Cc1ccccc1 (centres undefined) | 3 | 4
COc1ccc(C(=O)Cn2c(-c3nnc(C(C)C)o3)cc3ccccc32)cc1 | 11 | 9
Cc1ccccc1-c1nc2c(OCc3ccccc3)cccn2c1NC(C)(C)CC(C)(C)C | -8 | -3
Cc1ncc(CNCc2cccnc2N2CCCCCCC2)n1C | -3 | -6
CC(C)Oc1ccc(C(O)=C2C(=O)C(=O)N(CCN(C)C)C2c2cccc([N+](=O)[O-])c2)cc1 (centres undefined) | -15 | -16
COc1ccc(S(=O)(=O)N[C@@H](C)C(=O)Nc2ccccc2N2CCCC2)cc1 | 1 | -1
C=CCN1C(=O)C2(SC(NC(C)=O)=NN2C(C)=O)c2ccc(Cl)c(Cl)c21 (centres undefined) | 1 | 0
C=CCn1c(SCc2cc(F)cc(F)c2)nnc1-c1ccc(OC)cc1 | -2 | 6
O=C(NCc1cccc(C(F)(F)F)c1)C1COC2(CCCCC2)N1C(=O)c1ccc(F)cc1F (centres undefined) | -10 | -1
CCOC(=O)N1CCC(NC(=O)c2ccc(-n3nc(C)c(CC)c3C)cc2)CC1 | -16 | -24
CCOc1ccc(C2c3[nH]c4ccccc4c3CCN2C(=O)Cn2ccc(C)n2)cc1 (centres undefined) | 9&-2 | 10&-3
CCCc1c(C)nn(-c2ccc(C(=O)N3CCC(O)(c4ccc(Cl)cc4)CC3)cc2)c1C | -4 | -11
CCNc1ncc(C(=O)NC2CCC(n3cnnc3)CC2)cn1 (centres undefined) | -6 | -8
CN(Cc1ccccc1)C(=O)c1nc2ccccn2c1CN1CC=CCC1 | -1 | 23
Cc1cc(C)n(-c2ccc(NCCCOC3CCOCC3)nn2)n1 | 5 | 4
CC(C)(C)c1ccc(C(=O)Nc2ccc(N3CCc4ccccc4C3)c(C(=O)NCCCN3CCOCC3)c2)cc1 | -3 | -2

# Only part of the results is shown (hit frequency here may not be typical).
